# Rango-impB inh = Rango-importin beta binding inhibition | Rango CFP/YFP FRET sensor + importin beta, 45 min | Q14974 | Potency, µM (series often up to 92.2 µM), without a hit: at the highest dose inhibition of complex formation | 0.031% of 340,000 active | AID 540263; active = rising FRET ratio curve, often small or poorly fitted; inconclusive = mostly compound fluorescence or quenching in the first reads; inactive = flat curves in all reads;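 note: potency is the fitted concentration of half-maximal effect; 0% = DMSO wells and 100% = buffer wells lacking importin beta; nearly all actives have a fitted effect of over 15% in size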
# Target sequence (Q14974 whole entry, looked up): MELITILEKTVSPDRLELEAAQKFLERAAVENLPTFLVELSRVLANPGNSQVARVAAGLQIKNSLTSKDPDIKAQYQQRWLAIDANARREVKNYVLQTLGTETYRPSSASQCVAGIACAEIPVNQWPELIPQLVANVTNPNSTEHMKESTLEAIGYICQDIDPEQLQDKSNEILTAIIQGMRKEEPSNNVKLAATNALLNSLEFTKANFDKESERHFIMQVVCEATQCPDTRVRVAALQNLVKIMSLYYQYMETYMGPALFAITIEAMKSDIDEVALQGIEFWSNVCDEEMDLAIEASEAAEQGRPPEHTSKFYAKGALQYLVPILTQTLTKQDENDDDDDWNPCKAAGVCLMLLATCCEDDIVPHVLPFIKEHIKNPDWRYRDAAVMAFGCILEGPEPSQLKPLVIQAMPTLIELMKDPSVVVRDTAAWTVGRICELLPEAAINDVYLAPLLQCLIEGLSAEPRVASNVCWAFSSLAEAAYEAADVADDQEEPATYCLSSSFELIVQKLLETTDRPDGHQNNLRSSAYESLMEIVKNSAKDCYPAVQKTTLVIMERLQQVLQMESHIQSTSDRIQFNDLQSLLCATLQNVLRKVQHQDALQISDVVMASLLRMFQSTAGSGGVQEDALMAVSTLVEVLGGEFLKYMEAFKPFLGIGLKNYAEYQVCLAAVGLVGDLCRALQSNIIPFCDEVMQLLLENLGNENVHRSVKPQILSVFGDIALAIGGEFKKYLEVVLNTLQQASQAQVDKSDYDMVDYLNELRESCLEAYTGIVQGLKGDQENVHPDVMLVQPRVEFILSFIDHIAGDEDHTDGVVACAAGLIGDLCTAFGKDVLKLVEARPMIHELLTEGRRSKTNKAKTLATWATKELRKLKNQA
#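 Inhibition scored from the CFP 486 nm/YFP 530 nm FRET ratio 45 min after adding 0.125 microM importin beta to 50 nM Rango biosensor preincubated 5 min with compound (room temperature, PBS with DTT, Tween-20, BSA). No-importin wells as positive control.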
# GLA inh pH 4.5 = blocks human alpha-galactosidase A at pH 4.5; AID 1467; purified enzyme, 4-MU-alpha-Gal fluorescence, pH 4.5; activity change, negative = inhibition, % at 105 µM; 230,000 tested, under 10 active; inconclusive = small, poorly fitted or top-dose-only inhibition, or a rising curve; inactive = flat fitted curve, though single readings scatter; no compound was filed as active;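 note: 0% = full activity with enzyme and -100% = basal without enzyme; dose as in the result columns while the protocol names 77 µM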
# Rango dissoc inh = inhibition of RanGTP-driven Rango-importin beta dissociation | Potency, µM (titrated, usually from 46.1 µM), without a hit: top-dose activity change, negative = inhibition | Biochemical FRET Rango-importin beta, RanGTP-induced dissociation | 0.071% of 340,000 active | O95149+P62826; active means falling FRET ratio curve, often poorly fitted, with flat reads before Ran was added; inconclusive means other falling curves, or compound fluorescence or quenching; inactive means flat or rising ratio curve;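 note: potency is the fitted concentration of half-maximal effect; % of control where 0% means no effect; nearly all actives have a fitted effect of over 45% in size; -100% = wells without RanGTP and RCC1; the record marks most hits as doubtful in a second field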
#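 Rango/importin beta premix (0.1/0.25 uM final), PBS + 1 mM DTT + 0.02% Tween-20 + 0.1% BSA; cpd 5 min RT; FRET pre-read; + RanGTP-RCC1 (0.6 uM Ran, 2 mM GTP, 0.2 uM RCC1); 45 min RT; FRET post-read, ex 430, em 486/530 nm.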
# miR-21 reporter = miR-21 reporter, rising signal. HeLa miR-21 FLuc reporter, luciferase, 48 h. Potency, µM (series often up to 38.3 µM), inactives show at the highest dose reporter change, positive = more light. AID 2288. 340,000 tested, under 10 active; active = well fitted rising curve with a large enough effect; inconclusive = small, poorly fitted or top-dose-only effect; inactive = no such curve, though single readings can be large or run the other way;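 note: % of control where 0% means no effect; miR-21 action dims this reporter so a rising signal means less miR-21 action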
#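 Compounds were titrated across several concentrations (up to approximately 40 uM) and incubated 48 hours with HeLa miR-21-FLuc reporter cells (miR-21 target sequence downstream of FLuc, endogenous miR-21). Readout was firefly luciferase luminescence after lytic detection reagent.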
# Numbers without * were called inactive; ? = inconclusive; · = not tested or not shown; & = joins results of further samples. Some of the compounds tested. The share of hits here may be higher or lower than overall.
# The opening six entries as a preview:
# The line under a structure holds: Rango dissoc inh, Rango-impB inh, miR-21 reporter, GLA inh pH 4.5
CCC1(CC)NC(=O)N(CC(=O)Nc2cccc3ccccc23)C1=O
    1%, -3.8%, ·, ·
O=C(Nc1cccc(Cl)c1)Nc1ccc2c(c1)OCO2
    -9%, 2.4%, 1%, -8
COc1ccc(S(=O)(=O)CCC(=O)Nc2c(C)cccc2C)cc1
    13%, -1.0%, 1%, ·
CCCCCCc1ccc(OC(=O)c2ccncc2)cc1
    4%, 3.5%, -2%, ·
Cc1ccccc1-n1c(-c2cccnc2)n[nH]c1=S
    8%, 0.2%, -3%, 0
CCOC(=O)Cn1c2ccc(C)cc2c2nc(C)sc21
    1%, 0.7%, -2%, 2

# The list itself, previewed entries included:
# The line under a structure holds: Rango dissoc inh, Rango-impB inh, miR-21 reporter, GLA inh pH 4.5
CCC1(CC)NC(=O)N(CC(=O)Nc2cccc3ccccc23)C1=O
    1%, -3.8%, ·, ·
O=C(Nc1cccc(Cl)c1)Nc1ccc2c(c1)OCO2
    -9%, 2.4%, 1%, -8
COc1ccc(S(=O)(=O)CCC(=O)Nc2c(C)cccc2C)cc1
    13%, -1.0%, 1%, ·
CCCCCCc1ccc(OC(=O)c2ccncc2)cc1
    4%, 3.5%, -2%, ·
Cc1ccccc1-n1c(-c2cccnc2)n[nH]c1=S
    8%, 0.2%, -3%, 0
CCOC(=O)Cn1c2ccc(C)cc2c2nc(C)sc21
    1%, 0.7%, -2%, 2
O=C(COc1ccccc1Cl)N1CCCC1
    1%, -3.6%, -7%, -8
CC1(C)CC(=O)C2=C(C1)N(CC1CCCO1)C(=O)C2(NC(=O)c1cccnc1)C(F)(F)F (configuration not stated)
    -1%, 0.6%, 0%, -3
Cc1nn(C)cc1CN(C)C(=O)CC12CC3CC(CC(C3)C1)C2
    -7%, -2.8%, -9%, 4
CCn1c(CNc2ccc(OC)cc2)nnc1SCC(=O)c1ccc(OC)cc1
    6%, 0.8%, -22%, -5
O=C(NCc1ccco1)C1CCN(S(=O)(=O)Cc2ccccc2)CC1
    28%, 0.4%, -11%, 4
Cc1cc(NC(=O)c2cccc(Cl)c2)n[nH]1
    -6%, 3.1%, ·, ·
COc1ccc2[nH]c3c(c2c1)CCN1C(=O)C(CC(=O)NCCC2=CCCCC2)C[C@H](C(=O)N2CCCCC2)[C@@]31C (some centres not stated)
    1%, -2.8%, ·, ·
CSc1ccc(CCNS(=O)(=O)c2c(C)[nH]c(C)c2C(=O)N2CCCCC2)cc1
    -3%, 5.6%, 0%, ·
Oc1c(C(c2cccs2)N2CCN(c3ccc(F)cc3)CC2)sc2ncnn12 (configuration not stated)
    19%, 1.4%, -1%, -2
CSCCC(NC(=O)c1ccco1)C(=O)OCC(=O)N1c2ccccc2NC(=O)C1(C)C (configuration not stated)
    1%, 0.6%, ·, ·
COCCSc1ccccc1C(=O)Nc1ccc2c(c1)OCCO2
    7%, 2.6%, -18%, -6
CCOc1ccc(N2C(=O)CC(Sc3ncccn3)C2=O)cc1 (configuration not stated)
    6%, 7.0%, -2%, 7
CCN(C(=O)COC(=O)/C=C/c1ccc(C)o1)c1c(N)n(Cc2ccccc2)c(=O)[nH]c1=O
    -7%, -2.9%, ·, ·
COc1ccccc1-n1c(SCC(N)=O)nc2sc3c(c2c1=O)CCC3
    -3%, -1.9%, -6%, -4
CNc1c([N+](=O)[O-])cnn1-c1cccc(Cl)n1
    -11%, -0.5%, -2%, -6
COCCNc1nc(C)c(C(C)=O)s1
    0%, -5.0%, -2%, 0
N#Cc1ccc(Cl)cc1NC(=O)COC(=O)[C@H](CCC(N)=O)NC(=O)c1ccc(F)cc1
    8%, -1.0%, 0%, 5
Cc1ccc(NCCCn2cnc3c(OCc4ccccc4)ncnc32)cc1C
    -22%, -1.8%, ·, ·
Nc1[nH]n2c(=O)c3c(nc2c1N=Nc1ccccc1)CCCC3
    -3%, -0.1%, -1%, -1
CC1CCCN(C(=O)c2ccc(COc3ccccc3Br)cc2)C1 (configuration not stated)
    2%, 2.3%, -20%, 7
O=C(COC(=O)C1=NN(c2ccccc2)C(=O)CC1)NCc1ccccc1Cl
    4%, 2.8%, ·, ·
COc1ccc(N=Cc2sc3ccccc3c2Cl)cc1
    -3%, -3.2%, -30%, 6
O=C(O)CCCCCN1C(=O)/C(=C\c2ccncc2)SC1=S
    -8%, 0.2%, -3%, -1
S=c1[nH]nc(-c2cccnc2)n1/N=C/C=C/c1ccccc1
    -6%, 3.4%, -10%, 10
Cc1ccccc1Cn1nnc(C(=O)Nc2ccc3c(c2)OCCO3)c1N
    6%, -0.7%, ·, ·
O=S1(=O)CCO[C@H]2Cc3ccccc3[C@H]2N1Cc1ccccc1F
    ?, -2.2%, 5%, ·
COc1ccc(C2OCC3(CO2)SC(=O)NC3=O)cc1 (configuration not stated)
    3%, -0.3%, -6%, -4
COc1cccc(Nc2c3c(nc4c(-c5ccccc5)c(C)nn24)CCC3)c1
    13%, 0.3%, -6%, -9
COc1ccc(OC)c(NC(=O)COC(=O)/C=C/c2ccccc2Cl)c1
    -2%, 7.9%, -1%, -12
CSc1nnc(Cc2cc(=O)[nH]c(=O)[nH]2)n1-c1cccc(C)c1
    7%, -0.9%, -4%, -1
COc1cccc(CN(C(=O)COc2ccc(Cl)cc2)C2CCS(=O)(=O)C2)c1 (configuration not stated)
    18%, -3.7%, -4%, ·
O=C(NC1(C(=O)O)CCCC1)C(Cl)Cl
    -1%, -3.0%, ·, ·
Cc1ccc(CS/C(Nc2ccccc2C)=C(\C#N)C(=O)NCc2ccco2)c(C)c1
    12%, 0.8%, 10%, -5
Cc1ccc(NC(=O)CN(C)CC(=O)Nc2cccc(F)c2)cc1[N+](=O)[O-]
    4%, -4.2%, 18%, -11
CS(=O)(=O)N(CC(=O)N1CCN(Cc2ccccc2)CC1)Cc1ccccc1
    -11%, 0.7%, 8%, 0
O=S(=O)(c1ccc2c(c1)CCCN2)N1CCCC1
    -6%, -1.9%, ·, ·
CCOC(=O)c1c(C)[nH]c(C(=O)NCC(c2ccco2)N2CCCCC2)c1C (configuration not stated)
    -1%, 1.0%, ·, ·
COc1ccc(Cn2c(=O)[nH]c3cc(C(=O)NCCc4ccc(S(N)(=O)=O)cc4)ccc3c2=O)cc1
    18%, 0.6%, -7%, 6
CC(=O)OCc1c(C)cc(C)c(/C=C(/C#N)C(N)=O)c1C
    -14%, -2.0%, 0%, 11
COC(=O)CCC(=O)Nc1cccc([N+](=O)[O-])c1
    6%, -0.9%, -1%, -3
COc1ccc2c(OC)cc(-c3ccccc3)nc2c1
    22%, 0.6%, -7%, -2
O=S(=O)(c1ccc(Br)cc1)N1CCn2c(nc3ccccc32)C1
    -6%, 0.0%, 0%, -5
CC1(C)CNc2cc(N)ccc2S1
    32%, 0.8%, -4%, -1
Cn1nc(OC(=O)Nc2ccc(F)cc2)cc1C(F)(F)F
    14%, -0.9%, -11%, 4
Cc1ccc(S(=O)(=O)N2C[C@@H]3[C@H]4CC[C@H](C4)[C@@H]3[C@@H](C)[C@H]2c2ccn(Cc3ccccc3)c2)cc1
    -10%, 1.1%, ·, ·
O=C(c1ccc(CS(=O)Cc2ccc(Cl)cc2)o1)N1CCN(c2ccccc2)CC1 (configuration not stated)
    -20%, -2.3%, 9%, ·
CC(C)n1ncc2c(C(=O)NCCOc3ccccc3F)cc(C3CC3)nc21
    0%, -1.8%, ·, ·
Cc1ccc(S(=O)(=O)Nc2ccc3c(c2)nc(CCN2CCOCC2)n3C)cc1
    -11%, 3.5%, 17%, -3
Cc1cc(C)c(NC(=O)Cn2nnc(C(=O)NCc3cccs3)c2N)c(C)c1
    -4%, -1.6%, -24%&-1%, -7
CCCCn1nnc(NC(=O)c2ccc(-c3cccc([N+](=O)[O-])c3)o2)n1
    ·, ·, -13%, 7
O=C(O)CSc1ncn[nH]1
    -6%, 0.8%, -1%, -3
COc1ccc2[nH]c3c(=O)n(CCCN4CCOCC4)cnc3c2c1
    2%, -0.4%, -7%, 7
CC(C)CC(NC(=O)c1ccccc1)C(=O)N/N=C/c1ccco1 (configuration not stated)
    1%, -3.0%, -9%, -8
Cc1ccc(Cl)c2sc(NC(=O)C3CC3)nc12
    -1%, 1.3%, 5%, ·

# 3 of the entries above in order of their number in Rango dissoc inh, lowest first:
Structure,Rango dissoc inh,Rango-impB inh,miR-21 reporter,GLA inh pH 4.5
O=C(c1ccc(CS(=O)Cc2ccc(Cl)cc2)o1)N1CCN(c2ccccc2)CC1 (configuration not stated),-20%,-2.3%,9%,·
Cc1ccc(S(=O)(=O)N2C[C@@H]3[C@H]4CC[C@H](C4)[C@@H]3[C@@H](C)[C@H]2c2ccn(Cc3ccccc3)c2)cc1,-10%,1.1%,·,·
CC(C)n1ncc2c(C(=O)NCCOc3ccccc3F)cc(C3CC3)nc21,0%,-1.8%,·,·

# (cont.)
# The line under a structure holds: Rango dissoc inh, Rango-impB inh, miR-21 reporter, GLA inh pH 4.5
O=C(NCCc1c[nH]c2ccccc12)c1cccc(S(=O)(=O)Nc2ccccc2Cl)c1
    3%, 0.0%, 13%, 2
NC(=O)COc1c(-c2ccc(Br)o2)oc2ccccc2c1=O
    -14%, -1.5%, 3%, ·
Cc1ccccc1Cn1c(CN2CCc3ccccc3C2)nc2c1c(=O)n(C)c(=O)n2C
    7%, 0.0%, -3%, -6
CCOC(=O)CNC(=S)N(Cc1ccccc1)Cc1cccs1
    -3%, 3.3%, -2%, -8
O=C(NC1CC1)C1C2C3C4CC5C3C5C4C12 (configuration not stated)
    -7%, -1.7%, -17%, 0
O=C(CCn1cnc2ccccc21)N/N=C/c1ccccc1O
    9%, -4.0%, 2%, 8
CN(C)C(C)(C)/C=C/C(O)(c1ccccc1)c1ccccc1
    -9%, 8.6%, 3%, -7
NC(=O)C1CCN(C(=O)c2ccc3c(=O)n(Cc4ccco4)c(SCC(=O)c4ccc(F)cc4)nc3c2)CC1
    ·, ·, -2%, -5
OCCNCCNCc1ccc(-c2ccccc2)cc1
    ·, ·, -8%, 5
CCOc1cc(N2CCOCC2)c(OCC)cc1NC(=O)C(C)C
    5%, 0.6%, 4%, 10
COC(=O)CC(=O)CSc1nc(C)cc(C)c1C#N
    -22%, ?, -3%, 2
CSCCC(NC(=O)COc1ccccc1)C(=O)N1CCN(c2ccccc2F)CC1 (configuration not stated)
    -12%, -3.5%, -5%, -1
CCOC(=O)N=Nc1c(O)n(CC)c2ccccc12
    16%, -1.3%, -4%, -1
COc1cc(/C=N/NC(=O)CNc2n[nH]c(=O)[nH]c2=O)ccc1OCc1ccccc1
    24%, -1.6%, -29%, -1
Cc1cn(C2OC(COC(=O)c3ccccc3)C(O)C2O)c(=O)[nH]c1=O (configuration not stated)
    11%, -0.5%, -4%, -4
O=C(NC(=S)NNC(=O)c1ccco1)c1ccc(Br)cc1
    3%, 0.9%, -10%, ·
COc1ccc(N2CCN(C(=O)C3CCCN(S(=O)(=O)c4cccc5cccnc45)C3)CC2)cc1 (configuration not stated)
    3%, 1.0%, 19%, -7
O=C(C1CCC(CNS(=O)(=O)c2ccc(F)cc2)CC1)N1CCOCC1 (configuration not stated)
    -30%, -5.2%, -3%, -5
COCCCNC(=O)COc1cc2c(c3oc(=O)c(C)c(C)c13)CCC(C)(C)O2
    1%, -1.0%, -7%, ·
COc1cc(C(=S)N2CCOCC2)cc(OC)c1OC(=O)c1ccc(F)cc1
    11%, -0.4%, 4%, ·
O=C(CN(C(=O)CNC(=O)c1cccs1)c1ccc(F)cc1)NC1CCCCC1
    2%, 2.2%, -3%, ·
Cc1ccc(S(=O)(=O)N(Cc2ccccc2)c2ccccc2C(=O)NCc2cccnc2)cc1
    -12%, -0.4%, -12%, 7
C=CCOC(=O)C1=C[C@H](c2ccc(Br)cc2)C[C@H](OCCCCO)O1
    -25%, 0.5%, ·, ·
O=C1CCN2C=Nc3cccc4ccc1c2c34
    ?, ?, -16%, 5
Cc1nc(N)sc1-c1csc(Nc2ccc(S(N)(=O)=O)cc2)n1
    -27%, 0.8%, -9%, ·
O=C(CCNS(=O)(=O)c1ccc(OC(F)(F)F)cc1)N1CCCC1
    15%, -2.0%, ·, ·
